NPYLR7 agonist: agonists of mosquito NPYLR7 receptor, primary screen, cell-based, Aedes aegypti, calcium fluorescence, mosquito biting behavior. Aedes aegypti neuropeptide Y-like receptor 7 (NPYLR7). HEK293T NPYLR7/Galpha15, GCaMP6s calcium fluorescence. activation, % at 10 µM. hit rate 0.15% among 270,000. AID 1259423, 2018; in the data active = activation above about 40%;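 note: 0% = vehicle and 100% = reference agonist at the receptor; some compounds past the cut are filed as inactive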
NPYLR7 agonist max-min: second read-out of NPYLR7 agonist, no call of its own (marks repeat the call); activation, %; measured here: Max-Min RFU normalised activation; some inactives read as strong as hits;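 span of the calcium signal over five minutes; 0% = vehicle and 100% = native peptide agonist; compound fluorescence can raise it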
* = called active by the depositor; & = joins results of further samples. These rows are one share of the data; the hit share may differ from the screen's.

The first 4 compounds as a preview:
molecule,NPYLR7 agonist,NPYLR7 agonist max-min
COc1ccccc1C(=O)N1CCN(c2cc(Cl)ccc2OC)C(=O)C1C (stereo not given),-1,12
Clc1ccc(CSc2nnc(-c3ccco3)o2)c(Cl)c1,-5,-7
CCOC(=O)N1CCC(NC(=O)c2cccnc2NC(C)C)CC1,-8,-13
c1cncc(OCCCNC2CCSCC2)c1,-1,-2

Main list, from the first entry:
molecule,NPYLR7 agonist,NPYLR7 agonist max-min
COc1ccccc1C(=O)N1CCN(c2cc(Cl)ccc2OC)C(=O)C1C (stereo not given),-1,12
Clc1ccc(CSc2nnc(-c3ccco3)o2)c(Cl)c1,-5,-7
CCOC(=O)N1CCC(NC(=O)c2cccnc2NC(C)C)CC1,-8,-13
c1cncc(OCCCNC2CCSCC2)c1,-1,-2
Cc1ccccc1Nc1oc2c(c1-c1cccc(Cl)c1)c(=O)n(C)c(=O)n2C,0,-4
COC(=O)c1ccc(-c2nc(CN(C)C(C)c3nc(C)cs3)c(C)o2)cc1 (stereo not given),22,5
CCn1nc(C(=O)Nc2nnc(-c3ccno3)o2)cc1C,2,1
CCN1CCC(n2nccc2NCc2ccccc2Cl)CC1,8,9
CSCC(=O)N1CCC(Oc2cccc(C(=O)NCc3cccnc3)c2)CC1,3,2
N#CC(=Cc1c(F)cccc1F)S(=O)(=O)c1ccc(Br)cc1,8,12
CN1CCCc2cc(C(CNC(=O)C(C)(C)C)N3CCOCC3)ccc21 (stereo not given),5,1
Cc1ccc(NC(=O)NCCCn2ncccc2=O)cc1F,-9,-16
COc1ccc(NC(=O)CNC(=O)CN(C(=O)c2ccc(C)c([N+](=O)[O-])c2)C(C)C)cc1,-4,3
COCCNc1nc(Nc2cccc(C)c2)c2cnn(-c3ccccc3)c2n1,0,-2
CC(NC(=O)c1ccnn1C)c1ccc(F)cc1 (stereo not given),4,1

Some of the entries so far, with two lines to a compound:
Screens in order – NPYLR7 agonist	NPYLR7 agonist max-min
c1cncc(OCCCNC2CCSCC2)c1
    -1	-2
Cc1ccccc1Nc1oc2c(c1-c1cccc(Cl)c1)c(=O)n(C)c(=O)n2C
    0	-4
COC(=O)c1ccc(-c2nc(CN(C)C(C)c3nc(C)cs3)c(C)o2)cc1 (stereo not given)
    22	5
CCn1nc(C(=O)Nc2nnc(-c3ccno3)o2)cc1C
    2	1

The list continues:
molecule,NPYLR7 agonist,NPYLR7 agonist max-min
CCNC(=O)CNC(=O)c1cc(Br)c[nH]1,6,5
CCn1cc(C(CC(=O)N2CCC(Cc3ccccc3)CC2)c2ccc(C)cc2)c2ccccc21 (stereo not given),17,17
COc1cccc(-c2cc(C(=O)NC3CC3)nc3cc(-c4ccccc4)nn23)c1,3,14
CC(C)C1CN(C(=O)c2ccc[nH]2)CCC(=O)N1CC1CC1 (stereo not given),0,-18
CCOc1ccc(-n2nnnc2CNC(=O)CC(c2ccccc2)c2ccccc2)cc1,0,0
CCCn1cnnc1CN(C)Cc1nc[nH]c1C,13,10
COc1ccc(NC(=O)CCC2CCCN(Cc3cnc(N(C)C)s3)C2)cc1Cl (stereo not given),7,9
c1cc(-c2ccncc2)ccn1,10,11
Cc1ccc2c(C(=O)N(C)C3CCN(C)C3)cc(-c3cnn(C)c3)nc2c1C (stereo not given),8,3
COc1cccc(-c2noc3c2CN(c2ccc(C)nn2)CC3)c1,-1,-11
CCOC(=O)N(C)c1c(CC)nc2c(OCc3ccccc3C(=O)OC)cccn12,-10,-15
COc1cccc(-n2cnc3ccccc32)n1,6,-4
Cc1cc(Cl)ccc1NC(=O)NC1CCN(Cc2ccncc2)CC1,1,0
Cc1ccsc1C(=O)N1CCN(c2ncccc2C(=O)NCc2cccs2)CC1,-6,4
Cc1cc(C(F)(F)F)n2ncc(C(=O)N3CCCC(N(C)C)CC3)c2n1 (stereo not given),5,3

Compound profiles, from the list above:
`CCOc1ccc(-n2nnnc2CNC(=O)CC(c2ccccc2)c2ccccc2)cc1` across the screens: NPYLR7 agonist: 0; NPYLR7 agonist max-min: 0
`CCOC(=O)N(C)c1c(CC)nc2c(OCc3ccccc3C(=O)OC)cccn12` across the screens: NPYLR7 agonist: -10; NPYLR7 agonist max-min: -15

Further structures follow:
molecule,NPYLR7 agonist,NPYLR7 agonist max-min
O=C(COC(=O)C(Cc1ccccc1)N1C(=O)c2cccc([N+](=O)[O-])c2C1=O)c1ccccc1 (stereo not given),8,9
COC(=O)C1CCN(C(=O)c2cn(C)c3c(=O)n(-c4ccc(Cl)cc4)c(=O)[nH]c23)CC1,3,1
COc1ccc(CCNC(=O)c2cc3n(n2)CCN(CC2CC2)C3=O)cc1OC,15,7
COc1ccc(C(C2CC2)N2C(=O)C(C)NC2=S)cc1 (stereo not given),0,-1
Cc1ccsc1[C@@H]1CCN(C(=O)c2cnn(Cc3ccccc3)c2)C[C@H]1O,2,-1
Cn1cc(OCc2ccccc2)c(=O)cc1C(=O)Nc1ccccc1C(N)=O,1,0
COc1ccc(S(=O)(=O)N(C(=O)c2ccncc2)c2ccc(OC(=O)c3ccncc3)cc2)cc1,1,-1
O=C(c1ccccc1S(=O)(=O)c1ccccc1[N+](=O)[O-])n1nnc2ccccc21,-10,-13
COc1ccccc1C(C)NC(=O)c1ccc(N2CCOCC2)nc1 (stereo not given),0,1
CCCC(=O)N1CCC1(C)C(=O)NS(=O)(=O)c1ccc(C(C)(C)C)cc1 (stereo not given),-2,-7
CCC(NC(=O)c1cc(-c2ccccc2O)n[nH]1)c1cc(C)ccn1 (stereo not given),-5,-9
C=CCOC(CN1CCN(C(=O)c2c(C)noc2C)CC1)c1cccc(OC)c1 (stereo not given),-3,7
Cc1csc(NC(=O)NCC2CCCC(CNC(=O)Nc3nc(C)cs3)C2)n1 (stereo not given),-4,-7
C=c1occc1=C1NN=C(SCC(=O)c2cc(C)n(C3CC3)c2C)O1,-1,3
OCCCN1CCOC(c2ccc(F)cc2)C1 (stereo not given),-2,-5
COc1ccc2cc(C(=O)C3CCCN(C(=O)CCc4c(C)nn(C)c4C)C3)ccc2c1 (stereo not given),-13,-15
COc1ccc(CN2CCNC(=O)C2CC(=O)N(C)Cc2cnccn2)cc1C (stereo not given),10,5
N=C(N)c1ccc(N)cc1,4,-7
O=C(CCCSc1ccc(NC(=O)C2CC2)nn1)Nc1cccnc1,-2,-3
Cc1ccc(N2C(=O)C(c3c(C)[nH]n(-c4ccccc4)c3=O)=C([n+]3cccc(C)c3)C2=O)cc1,10,6
Cc1ccc(S(=O)(=O)N2CC(=O)N(CC(C)C)CC(C)(C)C2)cc1,-1,9
COc1ccc(NC(=O)CCCn2nc(-c3cccs3)ccc2=O)cc1,1,6
NC(=O)C1(N2CCCCC2)CCN(Cc2cc3n(n2)CCCNC3)CC1,3,4
COc1cccc(/C=C2\C(=O)Nc3ccccc32)c1O,-4,-3
CCOC(=O)CNC(=O)N1CCC2(CC1)SCCN2C(=O)COc1ccccc1,21,25
Cc1[nH]nc(CCC(=O)N2CC[C@@H](N3CCOCC3)[C@H](O)C2)c1C,2,-2
O=C(c1cccnc1Nc1cccc(C(F)(F)F)c1)N1CCC(O)(Cc2ccccc2)CC1,-6,-9
CN1CCN(C(=O)c2nc3ccc(Cl)cc3[nH]2)CC1,-9,-17
O=C1NCCN(C(=O)c2ccc(-n3cnnc3)cc2)C1c1ccc(F)cc1 (stereo not given),2,-1
COc1ccc(/C=C/CN2CCC(C(=O)NC(c3ccc(C)cc3)c3ccccn3)CC2)cc1 (stereo not given),5,6
Cc1oc2nc(CN(C)Cc3ccccc3Cl)nc(N)c2c1C,5,3
CC(C)Cn1cncc1CNc1nc(-c2ccncc2)nc2c1CNC2,38,27
O=S(=O)(Nc1cnc(Br)cn1)c1cccc(Cl)c1,-3,-4
O=C(c1cc2n(n1)CCN(Cc1ccc(C(F)(F)F)cc1)C2=O)N1CCC(N2CCCCC2)CC1,18,11
CCOC(=O)c1cc(-c2ccc(OC)cc2)n(-c2ccc(C(=O)NCCCn3ccnc3)cc2)n1,-2,5
CCN(CC)c1ncnc2c1sc1nc3c(cc12)COC(C)(C)C3,1,-1
COCCN(CC(=O)N1CCc2sccc2C1COc1ccccc1)C(=O)c1cccc(Br)c1 (stereo not given),-1,6
COc1cccc(-c2cc(C(=O)NCc3ccc(F)cc3)n(-c3cc(C)ccc3C)n2)c1,-2,5
CNC(=O)Cn1c(=O)c2c(OC)c(C)cnc2n(C)c1=O,2,0
CSc1ncccc1C(=O)N1CCCC(CO)(CCOc2ccccc2)C1 (stereo not given),0,-4
Cc1nc2n(n1)C(=O)C(C(c1ccc([N+](=O)[O-])cc1)N1CCN(C)CC1)S2 (stereo not given),0,-1
CCc1ccc(-c2c(-c3ccccc3)ncn2CCc2cnc[nH]2)nc1,-11,-17
O=C(NCc1cc(-c2ccc3c(c2)OCCO3)on1)c1ccc(=O)oc1,3,4
CC1(Cc2ccccc2Cl)C(=O)Nc2c(Cl)cccc21 (stereo not given),2,3
Cc1nc(-c2ccc(NC(=O)Cn3ccccc3=O)cc2)co1,15,4
C=CCN1C(=O)C(=Cc2ccc(OCC(N)=O)c(OC)c2)SC1=S,2,9
O=C1OC(c2cc(Cl)ccc2Cl)=N/C1=C\C=C\c1ccccc1,-7,-11
CSc1ccc(CN(CCO)C(=O)c2ccc(Cl)s2)cc1,5,-8
CCC(C)C(=O)Nc1ccc2[nH]nc(C(=O)OC)c2c1 (stereo not given),4,3
CCOC(=O)c1nn(-c2ccccc2Cl)c(=O)cc1OS(=O)(=O)c1ccccc1,-2,5
COc1ccc2c(c1OC)C(=O)N(c1ccc(Cl)c(Cl)c1)C2=O,4,0
O=C(NCC(CO)Cc1cc(F)ccc1F)c1nc(Cl)ccc1Cl (stereo not given),-1,-2
C=CCNc1ncnc2ccccc12,0,5
COC(=O)[C@@H]1C[C@H](NC(=O)NC2CCCCC2)CN1C,8,5
CS(=O)(=O)N(Cc1ccccn1)Cc1cccnc1Cl,5,4
Cc1cc(NC(=O)CSc2nc3c(c(=O)[nH]2)CN(Cc2ccccc2)CC3)ccc1Br,-13,-19
COCCN1C(=O)c2ccccc2[C@H](C(=O)N2CCc3ccccc3C2)[C@@H]1c1cccnc1,-7,-8
C[C@@H](NC(=O)CN1Cc2ccc(-c3ccc(C#N)cc3)nc2C1=O)c1ccccc1,4,6
C=CCN1C(=O)C(=C2SC(=S)N(CCS(=O)(=O)O)C2=O)c2cc(Br)ccc21,-2,-6
CCOC(=O)N1CCC(NC(=O)C2CC=CCC2C(=O)N2CCc3c([nH]c4ccccc34)C2)CC1 (stereo not given),-6,-15

New compounds follow
molecule,NPYLR7 agonist,NPYLR7 agonist max-min
CCN(C(=O)c1nccnc1N)C(C)c1cccc(C(F)(F)F)c1 (stereo not given),6&4,5&2
C#CCN(Cc1cccnc1)C(=O)NC1CCCN(c2ccc(C#N)cc2F)C1 (stereo not given),-4,-5
COc1ccc(Cl)cc1NS(=O)(=O)N(C)C,7,5
CCOC(=O)c1cc(C)nc(N2CCc3[nH]nc(-c4cccc(F)c4)c3C2)n1,6,1
